Source: PubChem (National Center for Advancing Translational Sciences (NCATS))
Rango-impB inh = qHTS Assay for Inhibitors of Rango (Ran-regulated importin-beta cargo) - Importin beta complex formation; AID 540263, 2011; Potency, µM (titrated, usually from 92.2 µM), for inactives: at the highest dose inhibition of complex formation; Rango CFP/YFP FRET sensor + importin beta, 45 min; actives 0.031% (n = 340,000); active = rising FRET ratio curve, often small or poorly fitted; inconclusive = mostly compound fluorescence or quenching in the first reads; inactive = flat curves in all reads;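 further: potency means the concentration at half of the fitted maximal effect; 0% = DMSO wells and 100% = buffer wells lacking importin beta; nearly all actives have a fitted effect of over 15% in size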
Target sequence (Q14974 whole entry, looked up): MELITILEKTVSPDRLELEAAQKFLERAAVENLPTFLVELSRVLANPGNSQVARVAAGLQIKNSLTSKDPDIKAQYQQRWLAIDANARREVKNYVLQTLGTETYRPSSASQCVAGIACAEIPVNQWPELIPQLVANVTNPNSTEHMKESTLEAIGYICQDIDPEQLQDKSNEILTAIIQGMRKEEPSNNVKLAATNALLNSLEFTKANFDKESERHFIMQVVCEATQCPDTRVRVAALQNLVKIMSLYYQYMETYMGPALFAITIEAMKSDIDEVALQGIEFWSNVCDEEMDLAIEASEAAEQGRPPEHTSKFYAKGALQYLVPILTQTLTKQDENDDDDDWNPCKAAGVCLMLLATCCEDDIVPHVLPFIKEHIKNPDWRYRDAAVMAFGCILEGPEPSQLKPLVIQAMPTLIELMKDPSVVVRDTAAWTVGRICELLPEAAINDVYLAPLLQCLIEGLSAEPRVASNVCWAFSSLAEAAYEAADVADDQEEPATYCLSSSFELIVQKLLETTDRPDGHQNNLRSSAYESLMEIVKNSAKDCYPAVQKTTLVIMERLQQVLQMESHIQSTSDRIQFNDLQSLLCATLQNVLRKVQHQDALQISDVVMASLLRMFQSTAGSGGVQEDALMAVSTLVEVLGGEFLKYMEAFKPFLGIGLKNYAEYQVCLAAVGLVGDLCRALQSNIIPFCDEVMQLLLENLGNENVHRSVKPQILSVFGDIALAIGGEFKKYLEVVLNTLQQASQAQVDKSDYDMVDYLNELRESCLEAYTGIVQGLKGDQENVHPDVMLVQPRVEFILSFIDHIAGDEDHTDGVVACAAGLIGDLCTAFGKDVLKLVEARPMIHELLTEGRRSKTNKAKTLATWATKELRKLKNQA
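FRET biosensor (snurportin 1 IBB flanked by EYFP and cerulean), 50 nM, with compound 5 min, then 0.125 microM importin beta in PBS, 1 mM DTT, 0.02% Tween-20, 0.1% BSA. CFP/YFP ratio read after 45 min at room temperature; pre-read flags interference.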
miR-21 FLuc = qHTS Assay for Modulators of miRNAs and/orActivators of miR-21; 340,000 tested, under 10 active; HeLa miR-21 FLuc reporter, luciferase, 48 h; Potency, µM (series often up to 38.3 µM), for inactives: at the top dose reporter change, positive = more light; AID 2288, 2010; active = well fitted rising curve with a large enough effect; inconclusive = small, poorly fitted or top-dose-only effect; inactive = no such curve, though single readings can be large or run the other way;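 further: % of control where 0% means no effect; miR-21 action dims this reporter so a rising signal means less miR-21 action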
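Luminescence from a firefly luciferase reporter carrying a miR-21 binding site downstream, stably expressed under a CMV promoter in HeLa cells that make miR-21 endogenously, reports miRNA modulation after 48 h compound exposure up to approximately 40uM final.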
Rango dissoc inh = qHTS Assay for Inhibitors of RanGTP induced Rango (Ran-regulated importin-beta cargo) - Importin beta complex dissociation; Biochemical FRET Rango-importin beta, RanGTP-induced dissociation; Potency, µM (top dose mostly 46.1 µM), for inactives: at the highest dose activity change, negative = inhibition; actives 0.071% (n = 340,000); AID 540253, 2011; active means falling FRET ratio curve, often poorly fitted, with flat reads before Ran was added; inconclusive means other falling curves, or compound fluorescence or quenching; inactive means flat or rising ratio curve;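 further: potency means the concentration at half of the fitted maximal effect; % of control where 0% means no effect; nearly all actives have a fitted effect of over 45% in size; -100% = wells without RanGTP and RCC1; the record marks most hits as doubtful in a second field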
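Rango/importin beta premix (0.1/0.25 uM final), PBS + 1 mM DTT + 0.02% Tween-20 + 0.1% BSA; cpd 5 min RT; FRET pre-read; + RanGTP-RCC1 (0.6 uM Ran, 2 mM GTP, 0.2 uM RCC1); 45 min RT; FRET post-read, ex 430, em 486/530 nm.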
GLA inh pH 4.5 = qHTS Assay for Inhibitors of Human alpha-Galactosidase at pH 4.5; purified enzyme, 4-MU-alpha-Gal fluorescence, pH 4.5; activity change, negative = inhibition, % at 105 µM; 230,000 tested, under 10 active; AID 1467, 2008; inconclusive = small, poorly fitted or top-dose-only inhibition, or a rising curve; inactive = flat fitted curve, though single readings scatter; no compound was filed as active;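 further: 0% = full activity with enzyme and -100% = basal without enzyme; dose as in the result columns while the protocol names 77 µM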
Active calls of the source: *; ? = inconclusive; . = not tested or not shown; & = joins results of further samples; [ ] = another dose, or the depositor's remark.

SMILES	Rango-impB inh	miR-21 FLuc	Rango dissoc inh	GLA inh pH 4.5
Cc1ccc(C)c(OCCC(=O)NCCc2ccc(S(N)(=O)=O)cc2)c1	1.3%	2%	-2%	.
O=C(C1=C[C@H](C2CCCCC2)C[C@H](OCCCCO)O1)N1CCN(Cc2ccccc2)CC1	0.1%	0%	3%	-2
Cc1ccc(CNC(=O)C(C)OC(=O)c2cccs2)cc1 (stereo unspecified)	-3.6%	-5%	21%	-3
Cc1ccc(NC2=Nc3ccccc3N3C2=Nc2c(c(C)nn2-c2ccccc2)C3c2ccc(O)c(O)c2)cc1 (stereo unspecified)	?	27%	?	-2
Cn1cc(C(=O)N2CCN(c3ccccc3)CC2)c(=O)c2cc(S(=O)(=O)N3CCCC3)ccc21	-1.8%	2%&2%	1%	.
Cc1ccc(S(=O)(=O)N2CCN(C(=O)c3cc4c(C)nn(-c5ccccc5C)c4s3)CC2)cc1	0.0%	21%	2%	-9
CCc1nn(CC(=O)N2CCN(c3ccc(F)cc3)CC2)c(=O)c2cc3occc3n12	-0.9%	0%	-5%	.
N#Cc1ccc(-c2ccc(OCC(O)CN3CCOCC3)cc2)cc1 (stereo unspecified)	3.3%	-14%	-13%	12
CCOC(=O)C1C(=O)OC(C)(C)C1C(C)C(=O)c1ccc(C)cc1 (stereo unspecified)	-0.9%	-5%	-9%	-2
Cc1ccc(C(=O)N(c2ccccn2)C(C)c2ccco2)cc1C (stereo unspecified)	-0.2%	-16%	19%	8
O=C1CN(C(=O)CN2CCOCC2)C(c2ccccc2)c2cc(Br)ccc2N1 (stereo unspecified)	6.1%	-10%	-1%	3
COc1ccc(N(C(=O)C2CCCCC2)S(=O)(=O)c2cccc3cccnc23)cc1	1.2%	0%	-23%	-4
O=C(CN(Cc1ccco1)C(=O)c1ccc(F)cc1)Nc1ccccc1Br	-1.9%	.	8%	.
CCCC(=O)N(CCN(Cc1ccccc1)C(=O)CCC)Cc1ccccc1	-0.1%	4%	12%	-6
COC(=O)[C@H](Cc1ccccc1)NC(=O)N1CCN(c2ccccc2)CC1	0.2%	8%	-4%	0

Gathered by group: the compounds so far containing a halogen (three)
SMILES	Rango-impB inh	miR-21 FLuc	Rango dissoc inh	GLA inh pH 4.5
CCc1nn(CC(=O)N2CCN(c3ccc(F)cc3)CC2)c(=O)c2cc3occc3n12	-0.9%	0%	-5%	.
O=C1CN(C(=O)CN2CCOCC2)C(c2ccccc2)c2cc(Br)ccc2N1 (stereo unspecified)	6.1%	-10%	-1%	3
O=C(CN(Cc1ccco1)C(=O)c1ccc(F)cc1)Nc1ccccc1Br	-1.9%	.	8%	.

Next records follow:
SMILES	Rango-impB inh	miR-21 FLuc	Rango dissoc inh	GLA inh pH 4.5
CCn1c(=O)cc(SCC(=O)NCc2ccc3c(c2)OCO3)c2ccccc21	-0.6%	0%	6%	-6
Cc1ccsc1/C=C(\C#N)C(=O)NCc1cccnc1	2.4%	-16%	8%	1
Cc1cnc([N+](=O)[O-])n1CCOC(=O)NC(=O)c1ccccc1	-2.1%	-2%	7%	5
O=C(NCc1ccco1)c1nc2c(nnn2Cc2ccccc2Cl)c(=O)[nH]1	-0.2%	?	-13%	2
CCOC(=O)CCC(=O)N1CCOCCOCCOCC1	3.0%	1%	?	-11
CCOC(=O)C1=C(C)NC(=S)NC1c1ccc(OCC(=O)N2CCCCCC2)c(OC)c1 (stereo unspecified)	3.6%	-4%	13%	.
COCn1cnc(-c2ccccc2)c1-c1ccccc1	0.6%	.	0%	.
CN(Cc1ccccc1)C(=O)c1[nH]cnc1C(=O)NCC(=O)OCc1ccccc1	-3.3%	5%	17%	.
O=C(Nc1nc2c(F)cc(F)cc2s1)C1CC1	6.1%	-29%	25%	.
O=C(c1ccccc1)n1c(=S)nc2ccccn21	2.5%	-34%	14%	7
COc1ccc(C(C)=O)cc1COC(=O)c1cnc(C)cn1	2.1%	-4%	-8%	1
C=C(C)CSc1nnc(CCNC(=O)OC(C)(C)C)o1	0.6%	-8%	-1%	-16
Cc1cc(C)n(C(CC(=O)O)C(=O)O)n1 (stereo unspecified)	3.2%	-5%	2%	0
COC(=O)c1nn(-c2ccc(Oc3ccccc3)cc2)c(=O)cc1O	2.2%	1%	-5%	-1
Cc1ccc(-n2nnnc2SCC(=O)NC2CC2)cc1C	-0.3%	-15%	12%	.
COc1ccccc1OCc1nn[nH]n1	-0.7%	1%	-7%	.
O=C(Nc1cc2c(cc1Br)OCCCO2)c1ccccc1	-2.4%	-77%	0%	-2
Nn1c(=O)[nH]c2ccccc2c1=O	-0.2%	-2%	0%	.
Cc1cccc(C=CC(=O)c2ccccc2)c1	0.4%	.	-7%	.
COCCN1C=C2C(=O)C(C)(OC(=O)C3CCCC3)C(=O)C=C2C=C1c1ccsc1 (stereo unspecified)	?	-4%	-15%	10&-6
CCCCOc1ccc(C2C(C(=O)c3ccc(C)o3)=C(O)C(=O)N2CC2CCCO2)cc1 (stereo unspecified)	-1.1%	0%	13%	-16
Cc1ccc(C)c(OCCSc2nnc(-c3cccnc3)n2N)c1	-0.3%	-1%	1%	4
Cc1ccc(S(=O)(=O)N2CCCCC2)cc1NC(=O)[C@@H]1CCCN1C(=O)c1cccs1	-0.3%	.	0%	.
CC(C)(C)c1ccc(C(=O)C2CCCN(C(=O)C3CCOCC3)C2)cc1 (stereo unspecified)	-6.3%	5%	-1%	-3
COc1ccc(NC(=O)[C@@H]2CCCN2S(=O)(=O)c2ccc(Cl)cc2)cc1	7.9%	.	-9%	.
Cc1ccccc1Nc1scc(-c2ccc(Cl)cc2)[n+]1-c1ccccc1C	-5.8%	12%	32%	-1
CC1Cc2ccccc2N1C(=O)c1cc2c(=O)n3ccccc3nc2n1C (stereo unspecified)	?	4%	-2%	-2
CCCCN(CCCC)NC(=O)c1ccccc1	-5.1%	-1%	1%	-5[21.1 µM]
Cc1ccc2nc3c(cc(C(=O)NCC4CCCO4)c(=N)n3C3CCCC3)c(=O)n2c1 (stereo unspecified)	?	-13%	?	.
COc1cccc(C(=O)C(=O)c2cccc(OC)c2OC)c1OC	?	.	6%	.
COc1cc(Nc2ccc(C(=O)O)cc2[N+](=O)[O-])cc(OC)c1	-0.2%	-23%	27%	-5
CC(=O)c1sc(NC(=O)c2ccc(F)c(S(=O)(=O)N3CCOCC3)c2)nc1C	-0.3%	.	-2%	.
CC(C)(C)OC(=O)C[C@H]1C/C=C\C[C@H](CC(=O)N(CCO)Cc2ccccc2)C(=O)NC[C@H](c2ccccc2)OC1=O	-0.6%	.	-1%	.
Cc1nn(-c2ccccc2)c2c1C(c1ccc([N+](=O)[O-])cc1)C(C#N)=C(N)O2 (stereo unspecified)	-2.6%	2%	1%	-8
COc1ccc(NC(=O)CN(C)C(=O)c2ccc(C)s2)cc1	-1.8%	-19%	18%	11
O=C(NCCCc1ccccc1)C1CCC(=O)N(Cc2ccc(Cl)cc2)C1 (stereo unspecified)	-5.6%	-23%	-8%	.
CC(C)(C)c1cc(-c2ccccc2)n[nH]1	-0.7%	-32%	3%	5
Cc1ccc(NC(=O)Nc2ccccc2CC[N+](=O)[O-])cc1	?	-19%	12%	-1
O=C(C1=C[C@H](C2CC2)C[C@H](OCc2ccc(CO)cc2)O1)N1CCN(Cc2ccc3c(c2)OCO3)CC1	-4.1%	17%	2%	-12
COc1cc(C(=O)OCC(=O)N(C)c2ccccc2)cc(OC)c1OC	1.5%	2%	-4%	.
O=C(NN=C1CCCC1)c1cc(Br)ccc1O	-1.4%	-32%	-13%	.
COc1ccc(S(=O)(=O)N(C)CC(=O)Nc2cccc(C(C)=O)c2)cc1Cl	0.7%	-3%	-8%	-3
CC(C)(C)CC(C)(C)N=C1Nc2ccccc2NC12C[C@H]1CCC(=O)N3CC[C@@H](C2)[C@@H]13 (stereo partly specified)	3.3%	.	10%	.
COc1ccc(/C=C/C(=O)N(C)c2ccccc2C(=O)O)cc1	-1.7%	-4%	7%	-2
CS(=O)(=O)N(CC(=O)NCc1ccc(Cl)cc1)C1CCCCC1	-1.2%	1%	-21%	-5

Looked up above.
`CC(C)(C)CC(C)(C)N=C1Nc2ccccc2NC12C[C@H]1CCC(=O)N3CC[C@@H](C2)[C@@H]13` (stereo partly specified) in Rango dissoc inh = 10%
`CC(=O)c1sc(NC(=O)c2ccc(F)c(S(=O)(=O)N3CCOCC3)c2)nc1C` in Rango dissoc inh = -2%

(more compounds)
SMILES	Rango-impB inh	miR-21 FLuc	Rango dissoc inh	GLA inh pH 4.5
Cc1ccc2nc(SCC(=O)NCc3ccco3)[nH]c2c1	-3.9%	-13%	-8%	3
CSc1nsc(SCC(=O)Nc2ccc(NC(C)=O)cc2)n1	5.4%	1%	6%	.
CC(C)(C)OC(=O)NC1CCN(S(=O)(=O)c2ccc3c(c2)OCCO3)CC1	6.9%	5%	-18%	.
COc1ccc([N+](=O)[O-])cc1NCc1ccccc1C	-0.4%	-20%	-7%	-4
CCN(CCCNC(=O)Cn1ncc2c([nH]c3ccccc32)c1=O)Cc1ccccc1	-3.8%	-6%	8%	.
CCCS(=O)(=O)Nc1cccc(-c2nc3cccnc3s2)c1	3.3%	-29%	25%	-5
CCCCCn1c(CN2CCN(C(=O)c3ccco3)CC2)nc2c1c(=O)n(C)c(=O)n2C	5.0%	-3%	13%	2
CN(C)CCCN(C(=O)c1cc(Cl)sc1Cl)c1nc2cc3c(cc2s1)OCO3	-2.3%	-13%	0%	.
CCN(C(=O)Cn1c(=O)oc2ccccc21)C1CCS(=O)(=O)C1 (stereo unspecified)	-0.3%	-1%	3%	5
Cc1cccnc1NC(=O)c1c(O)c2cccc3c2n(c1=O)CCC3	-2.5%	-2%	9%	7
N/C(=N\OC(=O)c1cccc(Cl)c1)c1ccccn1	0.5%	?	-16%	1
COc1ccc(-c2ccc3c(c2)S(=O)(=O)c2cccc(C(=O)NC4CCCC4)c2C3=O)cc1OC	4.1%	.	-16%	.
O=C(O)c1ccc(NCCc2ccc(Cl)cc2)c([N+](=O)[O-])c1	-2.4%	-15%	-2%	-1
CC(C)N1CCN(Cc2cccn2-c2nccs2)CC1CCO (stereo unspecified)	?	0%	-4%	-15
CCn1c(=O)c(C(=O)NNS(=O)(=O)c2ccc(NC(=O)OC)cc2)c(O)c2ccccc21	-1.9%	4%	17%	.
COc1ccc(Cl)cc1N1C(=O)CC(N2CCN(S(=O)(=O)c3ccccc3F)CC2)C1=O (stereo unspecified)	1.0%	.	-15%	.
CSc1nnc(CCNS(=O)(=O)c2ccccc2Br)n1C	0.5%	-2%	13%	.
Cc1cc(Cl)c(OCCOCCN2CCCC(C)C2)c(Br)c1 (stereo unspecified)	-3.1%	2%	18%	-10
CC1CCN(CCCNC(=O)C2CCN(S(=O)(=O)N3CCCCC3)CC2)CC1	13%	-3%	4%	13
O=C(CSc1nc(-c2ccco2)cc(C(F)(F)F)n1)N1CCN(c2ccc(Cl)cc2)CC1	?	-3%	18%	-15
Cc1ccc(NC(=O)Cn2nnc(C(=O)NCc3cccs3)c2N)c(C)c1	1.8%	0%	-3%	.
Cc1ccc(C)c(Cn2nnc3c(=O)[nH]c(C4CCN(S(=O)(=O)c5ccc(S(=O)(=O)NC6CC6)cc5)CC4)nc32)c1	-0.7%	29%	0%	.
CCOC(=O)C1(CCOc2ccccc2)CCN(Cc2ccncc2)CC1	0.1%	3%	-8%	7
Cc1occc1-c1nnc(SCC(=O)N(C)C)o1	?	-38%	-13%	-3
N#Cc1nc(Cc2cccc3ccccc23)oc1NCc1ccc(F)cc1	-1.7%	7%	5%	-12
CCN(CC)CC(=O)Nc1sc2c(c1C(=O)c1ccccc1OC)CCC2	3.8%	6%	23%	-7
COc1ccc(Cc2nnc(NC(=O)c3ccc(F)cc3)s2)cc1OC	1.4%	-4%	19%	.
Cc1cccc(Sc2ccc([N+](=O)[O-])cn2)c1	1.8%	4%	-8%	-3
N#Cc1nc(-c2cccs2)oc1NCc1ccc2c(c1)OCO2	1.3%	-27%	-5%	-8

These rows are one share of the data, so the mix of outcomes need not match the whole.
